Compound activity as filed in PubChem.
Vaccinia Venus – inhibitors of vaccinia virus (Venus reporter). Vaccinia virus Venus reporter expression, fluorescence. Potency, µM (top dose mostly 36.5 µM), for the others: at the highest dose activity change, negative = inhibition, hits mostly inhibitors. hit rate 0.46% among 330,000; active means well fitted inhibition curve with a large enough effect; inconclusive means small, poorly fitted or top-dose-only effect; inactive means no such curve, though single readings can be large or run the other way; tested in A549 cells; also: nearly all actives have a fitted effect of over 30% in size; inactives centre near -10
VACV mCherry inh – inhibitors of vaccinia virus infection (mCherry reporter signal); Vaccinia virus mCherry reporter infection, fluorescence; about a quarter of the inactives have no number; Potency, µM (highest dose often 36.5 µM), for inactives: at the highest dose activity change, negative = inhibition, usual class: inhibitors; hit rate 0.63% among 310,000; active = well fitted inhibition curve with a large enough effect; inconclusive = small, poorly fitted or top-dose-only effect; inactive = no such curve, though single readings can be large or run the other way; tested in A549 cells; also: nearly all actives have a fitted effect of over 35% in size; inactives centre near -10
* hit, by the source's call; i = inactive; ? = inconclusive; . = not tested or not shown; [ ] = remark or other dose. % is scaled to controls: 0 for no effect and ±100 for the full control effect; potency is read from the fitted curve at half-maximal effect.

SMILES | Vaccinia Venus | VACV mCherry inh
CC(NC(=O)c1ccc(F)cc1)C(=O)NC1=NCCS1 (centres undefined) | -3% | -9%
CCOC(=O)[C@]12CCCC=C1N(Cc1cccc3ccccc13)C(=O)[C@H](CC(=O)NCc1ccc(OC)c(OC)c1)C2 | ? | ?
CCOc1ccc(NC(=O)CSc2nc3ccsc3c(=O)n2CC)cc1 | -20% | -16%
O=C(O)c1cc2nc(-c3cccs3)cc(C(F)(F)F)n2n1 | -24% | -7%
N#CCCN(C(=O)COC(=O)C1=NNC(=O)CC1)c1ccccc1 | -13% | i
Nc1nnc(SCC(=O)Nc2cc(S(=O)(=O)N3CCOCC3)ccc2Cl)s1 | -16% | -2%
COc1ccc(N2CC(O)(c3ccc(C)cc3)[N+]3=C2CCCC3)cc1 (centres undefined) | 8% | i
O=c1nc(N2CCCCC2)nc(Nc2ccccc2)[nH]1 | -8% | i
O=C(C[n+]1ccc(C(=O)N/N=C/c2ccc(Br)cc2)cc1)c1ccccc1 | -11% | -20%
O=C(NCCN1Cc2ccccc2OC(c2ccsc2)C1)c1ccc2[nH]ccc2c1 (centres undefined) | 1% | -15%
O=C(NC12CC3CC(CC(C3)C1)C2)c1ccccc1O | -26% | -4%
Cc1ccccc1NC(=O)Cc1nc(-c2ccc3ccccc3c2)cs1 | -10% | i
Oc1ccc(/C=N/N(Cc2ccccc2)c2ccccc2)c(O)c1O | 4% | -1%
CCOC(=O)C1=C(CS(=O)(=O)c2ccc(OC)c(Cl)c2)NC(=O)NC1c1cccc(OC)c1 (centres undefined) | -23% | -28%
O=C(Nc1cccnc1)c1ccc(COc2cc(Cl)ccc2Cl)o1 | ? | .
CCn1c(=O)c2sccc2n2c(CCC(=O)Nc3cc(C)cc(C)c3)nnc12 | 1% | 4%
Cc1cc(Nc2ccc(C)c(Cl)c2)nc(N2CCOCC2)n1 | -26% | -25%
Cc1nnc(NS(=O)(=O)c2ccc(N=Nc3ccc(N)nc3N)cc2)s1 | -14% | -23%
COc1cc(CC(=O)N2C[C@H]3C[C@@H](C2)c2cccc(=O)n2C3)cc(OC)c1OC | -9% | i
COC(=O)c1nc(N)sc1-c1ccc(Cl)cc1 | -11% | -19%
COc1ccccc1C(=O)NC(=O)COC(=O)C1CC1 | -10% | -22%
CC(=O)Nc1nnc(SCC(=O)NC(C)(C)C)s1 | 0% | -10%
CC(=O)N1CCc2cc(S(=O)(=O)NC(Cc3ccccc3)C(=O)Nc3cccc(C)c3)ccc21 (centres undefined) | -10% | -7%
O=C(c1cc2ccccn2n1)N1CCN(Cc2ccccc2)CC1 | -3% | i
COc1cc(-c2nnc(SCC(=O)NC3CCCC3)n2C)cc(OC)c1O | -7% | -15%
Cc1cc(OCC(=O)Nc2ccc(S(=O)(=O)N3CCN(C)CC3)cc2)ccc1Cl | -20% | i
CC1CCN(C(=O)c2ccc(CS(=O)(=O)Cc3ccccc3)cc2)CC1 | -15% | -4%
CC(=O)Nc1ccc(/C=C2\CCc3ccccc3C2=O)cc1 | -11% | -16%
O=C(CNC(=O)c1ccc(Br)o1)OCC(=O)c1cccc([N+](=O)[O-])c1 | -10% | i
Clc1ccccc1CSc1nc(NCCc2ccccc2)c2ccccc2n1 | -17% | -15%
CNS(=O)(=O)c1cc(C(=O)O)ccc1OC | 2% | 4%
COc1ccccc1C(=O)Nc1ccc(-c2nnn(CC(=O)N3CCOCC3)n2)cc1 | -15% | -10%
CCOC(=O)c1c(NC(=O)CN2CCCCC2)sc(CN(C)C)c1-c1ccccc1 | -16% | i
Cc1ccc(NC(=O)CSCc2ccc(F)cc2)cc1 | -5% | -22%
CC(=O)c1ccc2c(c1)c(C#N)c1ccccc1[n+]2[O-] | -19% | -17%
COc1nc(-c2ccccc2)ccc1-c1noc(-c2ccco2)n1 | ? | -11%
COC(=O)[C@@H]1C[C@H]2CC[C@H](O)C[C@H]2N1Cc1ccccc1OC(=O)c1cccs1 | 4% | -30%
O=C1c2ccccc2C(=O)N1CCCc1cn(C[C@H]2CC[C@@H]([C@@H]3CC[C@H](Cn4cc(CCCN5C(=O)c6ccccc6C5=O)nn4)O3)O2)nn1 | 6% | -13%
CCCCCCn1c(=O)n2n(c1=O)[C@@H]1CN(S(=O)(=O)c3ccc(C)cc3)C[C@]1(O)[C@@H](OC(=O)NCc1ccc(OC)c(OC)c1)C2 | ? | -8%
CCCCNC(=O)c1cn(CC(C)C)c(=O)c2c1c1ccccc1n2C | -21% | -20%

Of the compounds above, these have a cyano group.
SMILES | Vaccinia Venus | VACV mCherry inh
N#CCCN(C(=O)COC(=O)C1=NNC(=O)CC1)c1ccccc1 | -13% | i
CC(=O)c1ccc2c(c1)c(C#N)c1ccccc1[n+]2[O-] | -19% | -17%

Next part:
SMILES | Vaccinia Venus | VACV mCherry inh
CNc1nc(NC)nc(NNC(=O)c2ccccc2)n1 | -5% | i
Cc1ccc(S(=O)(=O)Nc2ccc(F)c(S(=O)(=O)N3CCOCC3)c2)cc1 | 0% | -20%
Cc1ccc(NC(=S)N2CCc3[nH]c4ccccc4c3C2)cc1 | -11% | -25%
O=C(Nc1cccc(C(F)(F)F)c1)N1CCC(CN2CCCCCC2)CC1 | -12% | -7%
CCOc1ccccc1CNC(=O)c1ccc2c(c1)nc1n2CCCCC1 | 21% | -25%
O=C(CSc1nc2ccccc2nc1SCC(=O)N1CCCCC1)N1CCCCC1 | -14% | -25%
CCOc1ccc(CCNC(=O)CN2C(=O)NC3(CCCCC3C)C2=O)cc1OCC (centres undefined) | -3% | -12%
CC(=O)c1cccc(NC(=O)Cn2cnc3c2c(=O)n(C)c(=O)n3C)c1 | -14% | -14%
Cc1cc(C)n(-c2ccc(F)cc2)c(=O)c1C#N | -2% | -1%
COc1ccc(-c2c(-c3ccc(OC)nc3)c3ccccc3n2C)cc1 | -15% | -2%
CCN1CCN(C(=O)Cn2ncc3c4ccccc4n(Cc4ccccc4)c3c2=O)CC1 | -10% | -18%
COCCN(C(=O)COC(=O)CCCOc1ccccc1)c1c(N)n(Cc2ccccc2)c(=O)[nH]c1=O | -12% | i
CCCCn1c(N)c(N(CCOC)C(=O)COC(=O)COc2cc(C)ccc2Cl)c(=O)[nH]c1=O | -5% | -11%
COc1ccc(C[C@H]2NC[C@H](O)[C@H]2OC(C)=O)cc1 | 0.89µM* | 0.45µM*
COc1ccc(NC(=O)C2(C)CCN2C(=O)Cc2ccc(Cl)cc2Cl)cc1OC (centres undefined) | -6% | -8%
Cc1ccc(-c2cc(N)n(-c3ccc(F)cc3)n2)cc1 | -21% | -29%
CN1C(=O)[C@H]2[C@@H](/C=C/c3ccccc3)N3C(=O)CN(Cc4ccc(-c5ccccc5)cc4)C(=O)[C@@]3(Cc3ccccc3)[C@H]2C1=O | -29% | -14%
CCN1C(=O)[C@H]2[C@@H](c3ccc(-c4cccc(Cl)c4)cc3)N[C@@](C)(C(=O)OC)[C@H]2C1=O | -24% | ?
COc1cc(OC)c(C(=O)OCC(=O)N(Cc2ccccc2)C(C)(C)C)cc1OC | -7% | -5%
O=C1C2C3C=CC(C3)C2C(=O)N1/N=C/c1cn(Cc2ccccc2)c2ccccc12 (centres undefined) | -24% | .
COc1ccc(C2c3c(oc4ccccc4c3=O)C(=O)N2c2nc(C)c(C)s2)cc1 (centres undefined) | 2% | 1%
O=C(NCc1ccccc1)c1ccc(N2C(=O)C3CCCCC3C2=O)cc1 (centres undefined) | 3% | -8%
COc1ccc(-c2nnn(CC(=O)N3CCN(c4ccccc4OC)CC3)n2)cc1 | -13% | .
C=CCn1c(COc2ccc(F)cc2)nnc1SCC(=O)NC1CCS(=O)(=O)C1 (centres undefined) | -14% | i
Cc1onc(C(=O)NCc2ccc(F)cc2)c1[N+](=O)[O-] | -10% | i
Cc1ccc(CNC(=O)CN2CCN(Cc3ccc(C)cc3)C2=O)cc1 | -25% | .
O=C(c1[nH]c(C(F)(F)F)nc1-c1ccccc1)N1CCN(c2ccncc2)CC1 | 3% | 9%
Nc1nnc(-c2ccccc2F)s1 | -13% | -3%
CCOc1ccc(NC(=O)c2nn(C)c3c2COc2ccccc2-3)cc1 | 3% | -3%
Cc1ccc(C2=NN(CC(=O)NCCc3ccccc3)C(=O)CC2)cc1 | 5% | 1%
CCOC(=O)c1c(-c2ccccc2)csc1NC(=O)c1cc(-c2cccc(OC)c2)on1 | 1% | 3%
CCn1c2ccccc2c2cc(CN3CCN(Cc4ccc(Br)cc4)CC3)ccc21 | ? | ?
COc1ccc(CCNC(=O)CSc2nc3ccsc3c(=O)n2CC2CCC(C(=O)O)CC2)cc1OC (centres undefined) | -7% | 0%
CCC1(C2CCN(Cc3cccc(Cl)c3)CC2)NC(=O)N(CC2COc3ccccc3O2)C1=O (centres undefined) | -17% | -21%
Cc1ccc(S(=O)(=O)Nc2nc(C)cc(-n3nc(C)cc3C)n2)cc1 | 0% | i
COc1cc(NC(=O)CN2C(=O)COc3ccc(S(=O)(=O)N4CCOCC4)cc32)cc(OC)c1 | 7% | -4%
CCN(CC)C(=O)Cn1cc(S(=O)(=O)Cc2cccc([N+](=O)[O-])c2)c2ccccc21 | -12% | i
O=S(=O)(CCN1C=CC(C(F)(F)F)=NCC1)c1ccc(Cl)cc1Cl | -27% | i
COC(=O)c1c(SCc2ccc(C#N)cc2)nc(=O)[nH]c1C | 0% | -15%
C=CCc1cccc(C=Nc2cc(Br)ccc2O)c1O | ? | ?
CC(C)OCCCNC(=S)Nc1ccc2nc3n(c(=O)c2c1)CCCCC3 | -20% | -5%
CCN(CC)S(=O)(=O)c1ccc2c(c1)c(=O)c(C(=O)NCc1ccco1)cn2C | -17% | -20%
CCOC(=O)N1CCN(C(=O)C2CCN(S(C)(=O)=O)CC2)CC1 | -1% | i
CC(OC(=O)c1cn(-c2ccccc2)nc1-c1cccnc1)C(N)=O (centres undefined) | -8% | -13%
CN(C)C(CNc1ccc(S(C)(=O)=O)cc1[N+](=O)[O-])Cc1ccccc1 (centres undefined) | -10% | i
Cc1nc([N+](=O)[O-])c(C(=O)OCc2ccc(C#N)cc2)n1C | -5% | -1%
CCCCn1c(N)c(N(CC)C(=O)c2ccc([N+](=O)[O-])c(C)c2)c(=O)[nH]c1=O | -14% | -12%
COc1ccccc1CNc1nc2c(S(=O)(=O)c3ccccc3)nnn2c2ccc(Cl)cc12 | ? | ?
N#Cc1ccc(CN2Cc3ccccc3-n3nncc3C2)cc1 | -13% | -24%
CC(=O)c1cccc(Nc2ccc(C#N)cc2)c1 | 1% | 19%
Cc1cc(C)c2c(CN(C)Cc3ccccc3)cc(=O)oc2c1 | 0% | 31%[activator]
COC(=O)C(Cc1ccccc1)OS(N)(=O)=O (centres undefined) | -20% | i
CCCCOc1ccc(CN2C(=O)C(=O)c3cc(Br)cc(C)c32)cc1OC | -6% | -16%
CCC(=O)NNc1ncnc2c1cnn2-c1ccccc1 | -6% | i
COc1ccc2[nH]c(=O)c(CN(CCc3ccccc3)Cc3nnnn3CC3CCCO3)cc2c1 (centres undefined) | -22% | -3%
CC(=O)NC1C(=O)N(Cc2ccccc2)c2ccc(Br)cc21 (centres undefined) | -10% | -22%
CCC1CCCCN1C(=O)COC(=O)CN(C)S(=O)(=O)c1ccc(NC(C)=O)cc1 (centres undefined) | -12% | i
CCCNC(=O)C1CCC(Cn2c(=O)c3sccc3n(CC(=O)N3CCCC3)c2=O)CC1 (centres undefined) | -11% | -9%
CCOC(=O)C1CCN(c2nc3ccccc3n2CC(=O)c2ccccc2)CC1 | -1% | -15%
O=C(Nc1nc2ccccc2n1CCN1CCCC1)c1ccc(Cl)cc1 | -17% | .
Later entries:
SMILES | Vaccinia Venus | VACV mCherry inh
CC(OC(=O)CN1C(=O)c2ccccc2C1=O)C(=O)N(C)c1ccccc1 (centres undefined) | -4% | -11%
CN(CC(=O)NCC1CCCO1)S(=O)(=O)c1ccc(Br)cc1 (centres undefined) | -6% | i
O=C(NCCNC(=O)c1ccccn1)c1ccc(-c2ccccc2)cc1 | -13% | i
CSc1nc(=O)c2c(n1C)NC(=O)CC2c1cc(F)cc(F)c1 (centres undefined) | -11% | -4%
O=C1CCCc2cc3c(cc21)CCCC3 | -8% | i
Cc1nc(SCC(=O)c2ccccc2)[nH]c(=O)c1Oc1ccc(Cl)cc1 | -14% | i
COc1ccc(OCc2n[nH]c(=S)n2Cc2ccco2)cc1 | -11% | ?

Some of the entries above, set out differently:
| mol | Vaccinia Venus | VACV mCherry inh |
| --- | --- | --- |
| CC(OC(=O)CN1C(=O)c2ccccc2C1=O)C(=O)N(C)c1ccccc1 (centres undefined) | -4% | -11% |
| CN(CC(=O)NCC1CCCO1)S(=O)(=O)c1ccc(Br)cc1 (centres undefined) | -6% | i |

By substructure, those above with an aryl thioether with sulfur outside any ring (11)
SMILES | Vaccinia Venus | VACV mCherry inh
CCOc1ccc(NC(=O)CSc2nc3ccsc3c(=O)n2CC)cc1 | -20% | -16%
Nc1nnc(SCC(=O)Nc2cc(S(=O)(=O)N3CCOCC3)ccc2Cl)s1 | -16% | -2%
CC(=O)Nc1nnc(SCC(=O)NC(C)(C)C)s1 | 0% | -10%
COc1cc(-c2nnc(SCC(=O)NC3CCCC3)n2C)cc(OC)c1O | -7% | -15%
Clc1ccccc1CSc1nc(NCCc2ccccc2)c2ccccc2n1 | -17% | -15%
O=C(CSc1nc2ccccc2nc1SCC(=O)N1CCCCC1)N1CCCCC1 | -14% | -25%
C=CCn1c(COc2ccc(F)cc2)nnc1SCC(=O)NC1CCS(=O)(=O)C1 (centres undefined) | -14% | i
COc1ccc(CCNC(=O)CSc2nc3ccsc3c(=O)n2CC2CCC(C(=O)O)CC2)cc1OC (centres undefined) | -7% | 0%
COC(=O)c1c(SCc2ccc(C#N)cc2)nc(=O)[nH]c1C | 0% | -15%
CSc1nc(=O)c2c(n1C)NC(=O)CC2c1cc(F)cc(F)c1 (centres undefined) | -11% | -4%
Cc1nc(SCC(=O)c2ccccc2)[nH]c(=O)c1Oc1ccc(Cl)cc1 | -14% | i
